Source: PubChem BioAssay (National Center for Advancing Translational Sciences (NCATS))
gsp ag: gsp mutant agonism | Potency, µM (top dose mostly 76.9 µM), for inactives: top-dose activation (cAMP increase), most hits filed as activators | actives 0.13% (n = 340,000) | AID 624287 | gsp mutant cells, cAMP HTRF, 30 min; control for the full effect not named in the record; active = well fitted activation curve with a large enough effect; inconclusive = small, poorly fitted or top-dose-only effect, or another doubt; inactive = no such curve, though single readings can be large or run the other way; cell line not stated here;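 note: phosphodiesterase inhibitor Ro 20-1724 added with compounds to block cAMP breakdown; potency is the fitted concentration of half-maximal effect; nearly all actives have a fitted effect of over 60% in size; about a fifth of the inactives were tested at one dose only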
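Cells in DMEM/10% FBS with G418 were pretreated with compounds in DMSO plus […] (300 uM stock) for 30 min at 37C. cAMP was measured by HTRF (cAMP-d2 plus anti-cAMP antibody-K) after 30 min at room temperature.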
Menin-MLL FL inh: menin-MLL binding inhibition, fluorescein peptide | Fluorescence polarization, fluorescein-MLL peptide displacement from menin | FP activity change, % at 61.4 µM | 290,000 tested, under 10 active; inconclusive = falling polarisation curve, or a change in total fluorescence; inactive = total fluorescence flat and polarisation flat or rising; no compound was filed as active; the % refers to the polarisation; negative = inhibition;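 note: % of control where 0% means no effect; inhibitors lower the polarisation; unlabelled MLL peptide was the positive control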
ClpP mod: qHTS Assay for Activators of ClpP; ATP-dependent Clp protease proteolytic subunit (Bacillus subtilis (strain 168)), P80244; purified B. subtilis ClpP, FRET peptide cleavage, 20 min; Potency, µM (top dose mostly 57.5 µM), inactives show at the top dose activity change, negative = active; actives 1.9% (n = 340,000); active = well fitted falling curve with a large enough effect; inconclusive = small, poorly fitted or top-dose-only effect; inactive = no such curve, though single readings can be large or run the other way; note: potency is the fitted concentration of half-maximal effect; the source files actives as falling curves though it sought activators and does not explain the sign; nearly all actives have a fitted effect of over 65% in size; many hits overshoot -100%
Target sequence (P80244 whole entry, looked up): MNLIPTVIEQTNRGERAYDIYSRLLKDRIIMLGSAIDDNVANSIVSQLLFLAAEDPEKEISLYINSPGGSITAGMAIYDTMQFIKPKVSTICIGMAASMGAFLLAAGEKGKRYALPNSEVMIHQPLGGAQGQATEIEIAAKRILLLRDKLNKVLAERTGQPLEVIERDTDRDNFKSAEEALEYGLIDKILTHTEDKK
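FRET quenching reversal measured ClpP activation: 10 microg/mL B. subtilis ClpP at pH 8 with the FRET-FV decapeptide, read at 430 nm after 320 nm excitation. The 20-min minus 0-min signal was scaled between DMSO/no-enzyme wells and ADEP (5.8 microM final).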
TRPML1 agonist: human mucolipin-1 channel agonism. Q9GZU1. TRPML1-expressing cells, Ca2+ dye fluorescence, FDSS; host cell line not named in the record; reference of the full effect not given here. activation, % (concentration not given with the values). actives 0.12% (n = 410,000). AID 624414; in the data active = activation above about 50%; inconclusive = about 30% to 50%; inactive = below about 30%; note: 0% is about no effect; the text of the record puts the active cut at 80%
Target sequence (Q9GZU1 whole entry, looked up): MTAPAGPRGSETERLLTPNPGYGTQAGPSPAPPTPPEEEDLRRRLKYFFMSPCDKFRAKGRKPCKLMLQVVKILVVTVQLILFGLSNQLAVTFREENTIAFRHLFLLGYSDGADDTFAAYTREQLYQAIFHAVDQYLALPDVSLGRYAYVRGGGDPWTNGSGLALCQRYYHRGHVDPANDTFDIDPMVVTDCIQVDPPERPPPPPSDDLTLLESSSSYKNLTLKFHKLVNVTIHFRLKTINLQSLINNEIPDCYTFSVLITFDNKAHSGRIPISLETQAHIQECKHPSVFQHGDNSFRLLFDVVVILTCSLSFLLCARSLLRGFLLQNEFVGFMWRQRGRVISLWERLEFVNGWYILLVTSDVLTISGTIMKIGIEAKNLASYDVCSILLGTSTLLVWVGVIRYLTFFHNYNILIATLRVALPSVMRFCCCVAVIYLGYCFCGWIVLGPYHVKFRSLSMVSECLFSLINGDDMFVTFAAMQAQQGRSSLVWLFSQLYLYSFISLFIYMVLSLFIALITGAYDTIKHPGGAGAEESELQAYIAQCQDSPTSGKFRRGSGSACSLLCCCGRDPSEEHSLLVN
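Calcium fluorescence on an FDSS kinetic reader gave the read-out. Tet-induced TRPML1-DL cells were plated overnight, dye-loaded (Ca8 with quencher, 45-90 min, room temperature, dark), then read 110 s after compound addition, and again 110 s after 4uM final 54-4 (EC80).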
TRPML1 inh: blocks the human TRPML1 channel; Q9GZU1; TRPML1-inducible cells, Ca2+ dye fluorescence, FDSS; hits give low values; inhibition of EC80 agonist-evoked calcium signal; activity change, negative = inhibition, % (no concentration beside the values); actives 0.02% (n = 390,000); AID 624415; in the data active means activity change below about -50%; inconclusive means about -30% to -50%; inactive means above about -30%;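 note: stimulus is agonist 54-4 at its EC80 concentration; % is set by controls: 0 for no effect and ±100 for the full control effect; compound concentration not given in the record; the text of the record puts the active cut at -80%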
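Calcium fluorescence in TRPML1-DL cells induced overnight with Tet: a 110 s read after compound pin addition, then a 110 s antagonist read after challenge with 54-4 at 4 uM final (EC80).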
gsp antag: gsp mutant antagonism; Potency, µM (highest dose often 76.9 µM), without a hit: top-dose activity change, negative = inhibition, hits mostly inhibitors; gsp-mutant cells, cAMP HTRF, 30 min; control for the full effect not named in the record; actives 0.4% (n = 340,000); AID 624288; active = falling curve of any shape with a large fitted effect; inconclusive = falling curve, mostly with a smaller effect; inactive = flat or rising curve; cell line not stated here;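 note: intracellular cAMP measured with PDE inhibitor Ro 20-1724 present during compound exposure; potency is the fitted concentration of half-maximal effect; % is set by controls: 0 for no effect and ±100 for the full control effect; nearly all actives have a fitted effect of over 65% in size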
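Cells in G418 medium, seeded 16-24 h, 37C; buffer exchange to DPBS + 1 mM CaCl2, 0.5 mM MgCl2, 0.05% BSA; cpds in DMSO + […] (300 uM stock), 30 min 37C; HTRF cAMP detection.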
Starred values were filed as active, the others as inactive; ? = inconclusive; . = no result given; [ ] = another dose, or the depositor's remark. Rows were taken by chance. About 2.1% of those tested had a hit in this group.

Sequence of screens: gsp ag | Menin-MLL FL inh | ClpP mod | TRPML1 agonist | TRPML1 inh | gsp antag
Cc1cccc(NC(=O)C2C3CCC4C(CCC32)C4(Cl)Cl)c1 (centres undefined)
→ 5% | 1.2 | 0.7% | 0.2 | -10 | -4%
O=C(CCc1nc(-c2ccccc2)no1)N1CCCC1
→ 2% | 3.3 | -2.6% | 1.4 | -5 | -1%
CS(=O)(=O)c1ccc2nc(NC(=O)c3ccc(NS(=O)(=O)c4cccc([N+](=O)[O-])c4)cc3)sc2c1
→ -22% | 1.0 | -1.7% | 0.3 | 18 | -8%
CCCC(=O)Nc1cc(S(=O)(=O)N(CC)CC)ccc1Cl
→ 12% | 0.5 | -2.0% | 1.6 | 27 | 5%
COc1ccccc1/C=C/C(=O)NCCc1ccccn1
→ ? | -19 | . | -0.6 | 22 | 8%
O=C(NCCc1ccccc1)C1c2ccccc2C(=O)N1Cc1cccs1 (centres undefined)
→ -10%[15.4 µM] | 1.2 | . | 1.3 | 16 | 3%
COc1ccc(-n2c(SCC3OCCO3)nc3c(sc(=S)n3-c3ccccc3)c2=O)cc1OC
→ 43% | -0.4 | -1.6% | -0.5 | 0 | ?
CCOC(=O)c1sc2ncnc(N3CCN(c4ccc(OC)cc4)CC3)c2c1C
→ -40%[inhibitor] | 0.2 | -1.4% | -0.3 | -7 | -5%
CC(C)(C)Nc1nc(Nc2ccc([N+](=O)[O-])cc2)nc(NC(C)(C)C)n1
→ -11%[15.4 µM] | -4.4 | 1.3% | -0.3 | 28 | 6%
Cc1ccc(Cl)cc1NC(=O)Nn1cnnc1
→ -6% | 1.7 | -0.6% | 0.2 | 7 | -3%

In another format: results already given
CCOC(=O)c1sc2ncnc(N3CCN(c4ccc(OC)cc4)CC3)c2c1C
  gsp ag: -40%[inhibitor]; Menin-MLL FL inh: 0.2; ClpP mod: -1.4%; TRPML1 agonist: -0.3; TRPML1 inh: -7; gsp antag: -5%

CC(C)(C)Nc1nc(Nc2ccc([N+](=O)[O-])cc2)nc(NC(C)(C)C)n1
  gsp ag: -11%[15.4 µM]; Menin-MLL FL inh: -4.4; ClpP mod: 1.3%; TRPML1 agonist: -0.3; TRPML1 inh: 28; gsp antag: 6%

Cc1ccc(Cl)cc1NC(=O)Nn1cnnc1
  gsp ag: -6%; Menin-MLL FL inh: 1.7; ClpP mod: -0.6%; TRPML1 agonist: 0.2; TRPML1 inh: 7; gsp antag: -3%

(list continues)
Sequence of screens: gsp ag | Menin-MLL FL inh | ClpP mod | TRPML1 agonist | TRPML1 inh | gsp antag
Cc1ccc(S(=O)(=O)N(C)C)cc1-n1c(SCC(=O)N(C)C)nc2ccccc2c1=O
→ 12% | -4.1 | -2.8% | -0.2 | -12 | 1%
N#Cc1ccccc1OCC(=O)OCC(=O)NCc1ccc2c(c1)OCO2
→ -24% | . | -2.1% | 0.5 | -6 | -13%
CCC(=O)Nc1ccc2nc(C3CC3)n(Cc3ccccc3)c(=O)c2c1
→ 9% | 0.8 | 29% | -0.1 | 6 | 6%
COc1cc(CN(CC2CCCO2)C(=O)c2ccccc2F)cc(OC)c1OC (centres undefined)
→ . | . | -0.5% | -0.5 | 2 | .
O=C(c1ccc(-c2ccccc2)cc1)C1CCCN(Cc2ccncc2)C1 (centres undefined)
→ 26% | 1.8 | . | 0.1 | -8 | -22%
O=C(NCc1ccccn1)C1CCC(CNS(=O)(=O)c2cccc3nsnc23)CC1 (centres undefined)
→ -6% | 2.6 | 0.4% | 0.1 | -5 | -7%
OC(CNCc1ccccc1)COc1ccccc1 (centres undefined)
→ ? | . | 1.1% | -1.2 | -7 | 9%
COc1ccccc1N1CCN(C(=O)c2sc3ncnc(N4CCN(c5ccccn5)CC4)c3c2C)CC1
→ 16% | . | . | 6.6 | 9 | ?
CCCCCCN1C[C@@H](O)[C@H](n2cc(COC(=O)c3ccccc3)nn2)C[C@@H]1c1ccc(Cl)cc1
→ -204%[inhibitor] | . | -4.1% | 0.6 | -17 | .
CCOc1ccc(/C=C2/C(=O)N(c3ccc(OC)cc3)C(=S)N2CC(=O)OC)cc1OCC
→ 1% | -1.2 | -0.9% | 2.6 | -15 | -16%
O=C(O)c1cc2c(cc1NC(=O)C1CCCC1)OCCO2
→ -3% | . | -9.5% | 0.2 | -12 | -7%
Cc1cc(NC(=O)CS(=O)CC(=O)Nc2c(C)cccc2C)ccc1-n1cnnn1 (centres undefined)
→ 2% | 1.5 | . | -0.1 | 11 | 11%
O=C1CC(c2ccco2)CC2=C1C1c3ccccc3C(=O)N1c1ccccc1N2 (centres undefined)
→ 7% | 0.5 | -0.5% | -0.6 | 3 | 5%
Cc1ccc(C(=O)Nc2ncccc2O)cc1S(=O)(=O)N1CCCCC1
→ -44%[inhibitor] | . | -17% | -0.5 | -2 | 3%
O=C(NCCOCCn1c(=O)oc2ccccc21)Nc1ccc(F)cc1
→ . | . | 1.1% | -0.8 | -1 | .
COc1ccc(NC(=O)CN2C(=O)C3(SCC(=O)N3c3ccccc3)c3ccccc32)cc1Cl (centres undefined)
→ . | . | -2.2% | 1.4 | 23 | .
CN1C(=O)C2(c3ccccc31)C1CCCC=C1C(C#N)=C(N)C2(C#N)C#N (centres undefined)
→ -22% | -3.6 | 1.0% | -0.6 | 12 | 10%
O=C1C2CCCCN2C(=O)N1CCCCN1CCN(c2cccc(Cl)c2)CC1 (centres undefined)
→ -3%[15.4 µM] | -3.7 | -5.8% | -0.2 | -13 | 0%
Cc1ccc(CCNC(=O)c2nnn(-c3cccc(C)c3)c2N)cc1
→ 0% | 2.9 | -2.7% | 1.6 | 13 | -12%
O=C1N=C(c2ccccc2)C(c2ccccc2)N1 (centres undefined)
→ ? | 1.4 | ? | -1.2 | -16 | 8%
C=CCOc1cccc(C(=O)N(C)C2CCCN(Cc3ccccc3F)C2)c1 (centres undefined)
→ -49%[inhibitor] | . | 0.0% | 0.5 | -9 | 3%
Cc1ccc(NC(=O)C2Cc3ccccc3N2C(=O)c2ccccc2)cc1Cl (centres undefined)
→ . | . | 3.2% | 2.1 | 1 | .
C=CCNC(=S)NNC(=O)C(CCCC)CC(C)O (centres undefined)
→ 28% | 4.4 | 4.0% | 0.3 | -20 | 12%
Cc1ccc(NC(=O)CN2C(=O)C(c3ccc(F)cc3)=NC2(C)C)c(C)c1
→ . | . | 1.2% | -0.3 | -9 | .
CC(c1ccc(F)cc1)n1cc(S(=O)(=O)N2CCCC2)ccc1=O (centres undefined)
→ 24% | . | 0.5% | 1.3 | 12 | -1%
O=c1c2c3nc4ccccc4nc3n(/N=C/c3ccncc3)c2ncn1-c1ccccc1
→ 18% | 2.7 | -3.4% | 0.3 | -29 | 6%
CCOC(=O)N1CCC(N(CCOC)C(=O)Nc2ccc(C)c(C)c2)CC1
→ -43%[inhibitor] | 2.9 | -2.6% | 2.2 | 16 | -8%
CCOc1ccc(-n2nc3c(Cl)nnc(C)c3c2C)cc1
→ ? | 6.5 | ? | 0.8 | -9 | 6%
CCOC(=O)C1CCCN(C(=O)/C=C/c2ccc(Cl)cc2)C1 (centres undefined)
→ ? | 1.1 | 0.0% | 4.0 | 28 | -10%
CCc1ccccc1Nc1cc(C(=O)NC2CCC(C)CC2)c2ccccc2n1 (centres undefined)
→ . | . | 205% | 2.4 | 65 | .
c1ccc(CN2CCN(c3ncnc4c3cnn4-c3ccccc3)CC2)cc1
→ . | . | -3.0% | 0.3 | 5 | .
O=C(CSc1nc2ccccc2c2nc3ccccc3n12)NCc1ccco1
→ -4% | 2.5 | ? | -0.2 | 48 | -20%
O=C(NCc1ccc(Cl)cc1)C1CCN(S(=O)(=O)N2CCOCC2)CC1
→ -1% | 0.0 | -1.8% | 0.0 | -14 | -8%
COc1ccccc1NC(=O)Cn1c(CCC(=O)O)ccc1-c1ccccc1
→ 19% | 4.3 | . | 0.8 | 17 | -14%
C[C@H]1CN([C@@H](C)CO)C(=O)c2cc(Br)cnc2O[C@@H]1CN(C)S(=O)(=O)c1cn(C)cn1
→ ? | . | 1.0% | -0.5 | 7 | .
CC(Oc1ccccc1)C(=O)NNC(=O)c1ccccn1 (centres undefined)
→ -23% | 6.3 | 1.6% | -0.1 | 7 | 14%
CC(C)CC(=O)Nc1c2c(nn1-c1ccc(F)cc1)CSC2
→ 4% | -0.8 | -0.8% | -0.2 | 9 | 6%
O=c1cnnc(Nc2ccc(Cl)c(C(F)(F)F)c2)[nH]1
→ 4% | 1.3 | . | -0.2 | 0 | 2%
COc1ccc(C(=O)CSc2nnc(C(CO)NC(=O)c3ccc(OC)cc3)n2C)cc1 (centres undefined)
→ 0% | 2.7 | 0.9% | 0.4 | 12 | 4%
Cc1ccc(CSc2ccc3nnc(-c4cccnc4)n3n2)cc1
→ 3%[15.4 µM] | -0.8 | 1.2% | 2.2 | 5 | -6%
C/C(=N\NC(=O)c1cccnc1)c1ccc(-n2ccnc2)cc1
→ -8% | 2.3 | -1.6% | -0.1 | 2 | 6%
Cc1ccc(C(=O)Nc2cccc([N+](=O)[O-])c2)cc1S(=O)(=O)Nc1cccc(C(=O)O)c1
→ -1%[15.4 µM] | -2.8 | . | 1.8 | 1 | -9%
COc1cc(S(=O)(=O)Nc2ccc(Br)cc2)ccc1N
→ 2% | -0.1 | 1.4% | 0.2 | 2 | 7%
COP(=O)(OC)C(Nc1ccc([N+](=O)[O-])cc1)c1ccccc1 (centres undefined)
→ -1%[15.4 µM] | 1.7 | -1.9% | -0.2 | 15 | 0%
COc1ccc(C)c2sc(N3CCN(C(=O)c4cccc(F)c4)CC3)nc12
→ . | . | -1.5% | 3.0 | 49 | .
Cc1cccc(NC(=O)c2ccc(OCc3c(C)noc3C)cc2)c1
→ -28% | . | 0.2% | 0.9 | 8 | -29%
CCOC(=O)c1cnc2c(C)cccc2c1NCc1ccco1
→ -7% | 2.3 | -18% | 1.9 | 12 | -11%
Cc1cccc(NC(=O)CSc2nc(C)c(Cc3ccccc3)c(=O)[nH]2)c1C
→ . | -1.2 | 0.4% | 0.0 | 11 | .
Cc1cccc(N2CCN(C(=O)Cn3nc(C)c4sc5ccccc5c4c3=O)CC2C)c1 (centres undefined)
→ . | . | -2.1% | 0.8 | -1 | .
CCOC(=O)c1ccc(NC(=O)Nc2cc3c(cc2N2CCCCC2)n(CC)c(=O)n3CC)cc1
→ . | . | -15% | 1.5 | -3 | .
CC(NC(=O)c1ccc([N+](=O)[O-])o1)C12CC3CC(CC(C3)C1)C2 (centres undefined)
→ 9%[15.4 µM] | -6.9 | . | 0.2 | 4 | .
COC(C/C=C/[C@H](O)[C@@H](C)OCc1ccccc1)OC
→ . | . | 1.3% | 0.7 | 2 | 13%
